# Screening results (PubChem BioAssay)
# MT1-MMP act inh – MT1-MMP (human) activation inhibition; HT1080 RFP-PRO-GFP cells, GFP/RFP ratio fluorescence, overnight; percent of plate control window, DMSO zero; GFP/RFP ratio change, % at 20 µM; 360,000 tested, 0.061% active; P50281;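 active means GFP/RFP ratio change of at least 30% with cell ATP level not reduced by more than half and red fluorescence within 50% of control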; further: strong numbers were not always called active
#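 Test system: HT1080 cells expressing an RFP-PRO-GFP fluorescent reporter construct / Compound dosing: single-point 20 µM compound, 1% DMSO / Schedule: cells overnight before dosing, compound overnight, 37 °C, 5% CO2 / Evaluation: GFP/RFP fluorescence ratio / Control set: DMSO and RFP-L50D-GFP cell wells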
# PABP FP inh – blocks human PABP binding to poly(A) RNA; P11940; fluorescence polarization; inhibition, % at 35 µM; 290,000 tested, 1% active; AID 2014;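 active means 50% or more with normal probe brightness, or confirmed in later tests; inconclusive means above 50% with abnormal brightness, or retests that disagree; inactive means below 50% or failed in later tests; about a fifth of its hits are not listed in these tables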;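 further: calls also rest on retests at 20 µM and on dose response follow-up; controls were probe without protein and protein plus probe with vehicle; some compounds called inactive have numbers as strong as hits; many hits fall short of the cut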
# Target sequence (P11940 whole entry, looked up): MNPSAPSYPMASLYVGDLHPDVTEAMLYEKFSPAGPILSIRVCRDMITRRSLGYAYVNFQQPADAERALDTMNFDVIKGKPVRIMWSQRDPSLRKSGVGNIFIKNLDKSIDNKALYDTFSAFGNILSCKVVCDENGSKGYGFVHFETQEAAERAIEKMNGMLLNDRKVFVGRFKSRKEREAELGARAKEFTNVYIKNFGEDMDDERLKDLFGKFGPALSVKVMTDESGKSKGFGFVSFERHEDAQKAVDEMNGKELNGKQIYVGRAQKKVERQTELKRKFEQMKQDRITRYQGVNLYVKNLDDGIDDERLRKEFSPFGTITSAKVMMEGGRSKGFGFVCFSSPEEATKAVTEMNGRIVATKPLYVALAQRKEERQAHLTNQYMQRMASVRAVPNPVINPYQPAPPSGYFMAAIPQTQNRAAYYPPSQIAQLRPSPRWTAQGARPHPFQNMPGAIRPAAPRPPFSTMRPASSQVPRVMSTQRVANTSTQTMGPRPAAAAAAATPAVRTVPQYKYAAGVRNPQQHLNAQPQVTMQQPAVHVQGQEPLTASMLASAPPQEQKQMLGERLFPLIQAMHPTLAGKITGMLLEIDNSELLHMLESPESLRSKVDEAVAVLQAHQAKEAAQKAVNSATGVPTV
# Rce1 inhib – yeast Ras-converting enzyme inhibition; yeast membranes, quenched prenylated peptide cleavage fluorescence; calls only; 290,000 tested, 0.27% active; AID 2563;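 active means fall in fluorescence gain of 50% or more versus controls, with final raw signal at or below 3038400; inconclusive means same 50% fall but final raw signal above 3038400; inactive means fall in fluorescence gain under 50%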;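 further: plate controls were neutral control wells for no effect and wells lacking membranes for full effect; tested at 10 µM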
# Env fusion inh – inhibitors of HIV Env-mediated cell fusion. HeLa-JRFL Env/CEM21 cell fusion, luciferase. 360,000 tested, 1.1% active. inhibition, % at 12.3 µM. AID 651610;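 active means mean replicate inhibition score of at least 50 and every replicate individually at or above 50; inconclusive means only one of the two criteria met; inactive means mean below 50 and not all replicates reaching 50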;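 further: 0% = plate neutral controls and 100% = maraviroc near 300 nM; one replicate is shown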
# eIF4H inh – inhibitors of RNA binding by human eIF4H; 290,000 tested, 0.94% active; eIF4H fluorescence polarization binding assay; inhibition, % at 35 µM;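 active means 50% or more with normal probe brightness, or confirmed in later tests; inconclusive means above 50% with abnormal brightness, or retests that disagree; inactive means below 50% or failed in later tests; about a fifth of its hits are not listed in these tables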;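 further: calls also rest on retests at 20 µM and on dose response follow-up; 0% = protein and probe with vehicle and 100% = probe without protein; strong numbers were not always called active; many hits fall short of the cut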
# CSC inhib – blocks cancer stem cells | cancer stem cell-like cells viability, luminescence | inhibition, % at 7.5 µM | 300,000 tested, 1.1% active;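 active means mean at 75% or more and at least half the replicates too; inconclusive means mean and replicates disagree; tested in HMLE shEcad cells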;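 further: 0% = median of negative and 100% = median of positive control wells; the first replicate is given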
# UUG fidelity – alters start codon recognition fidelity in yeast. S. cerevisiae UUG-firefly luciferase reporter, luminescence/redox ratio. activity score, % at 18.7 µM. 350,000 tested, 0.13% active;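 active means replicate mean at a twofold rise or more, about +100% in these data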;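 further: firefly luciferase made from a UUG start codon reports start codon fidelity; reporter light over untreated wells divided by growth signal over untreated wells; some hits fall short of that in this replicate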
# eIF4H inh retest – second read-out of eIF4H inh, no call of its own (marks repeat the call); inhibition, %; compound at 20 µM; confirmation average;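 mean of two retest wells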
# PABP FP inh retest – also measured in PABP FP inh; calls as there; inhibition, %; compound at 20 µM; confirmation repeats;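 mean of two retest wells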
# MT1-MMP act inh RFP – also measured in MT1-MMP act inh; calls as there; RFP signal change, %; measured here: RFP expression control read;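 0 = vehicle wells; hits needed this value within 50% of zero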
# * marks the source's active call; other numbers are inactive results; i = inactive; ? = inconclusive; . = no result given.
SMILES,MT1-MMP act inh,MT1-MMP act inh RFP,PABP FP inh,Rce1 inhib,Env fusion inh,eIF4H inh,CSC inhib,UUG fidelity,others
Cn1c(=O)c(=O)n(C)c2cc(S(=O)(=O)N3CCC(N4CCCCC4)CC3)ccc21,11,8,.,i,-90,.,4,-6,
C=CCOc1ccc(CN(C)Cc2nc3cc(C(F)(F)F)ccc3c(=O)[nH]2)cc1,3,-2,2,i,14,-9,2,.,
CC1CC(C)CN(S(=O)(=O)c2ccc(Cl)cc2)C1 (stereo unspecified),-2,-4,1,i,16,0,-11,-8,
CCNc1nn2ccccc2c1/C=C(\C#N)C(=O)OCC,-3,-1,4,i,-19,-6,4,-7,
CC(=O)OCC(=O)C1(O)CCC2C3CCC4=CC(=O)CCC4(C)C3(F)C(O)CC21C (stereo unspecified),-4,3,.,.,-218,.,.,-10,
CC(=O)Nc1cccc(NC(=O)CSc2nnnn2Cc2ccccc2)c1,3,-5,1,.,-33,-8,-8,-12,
Cc1c(C=O)c2ccccn2c1C(=O)c1ccc(Cl)c([N+](=O)[O-])c1,3,-2,-6,i,21,0,8,.,
COC(=O)c1[nH]c2ccccc2c1NC(=O)C(C)N1CCOCC1 (stereo unspecified),-4,2,-5,i,-8,1,-6,-8,
CCS(=O)(=O)n1nc(-c2ccc(C)cc2)nc1N,3,2,-6,i,.,-16,-3,-13,
OCCNCCO,-1,0,-8,i,.,-3,-7,-22,
Cn1cc(CN(CCO)Cc2cccs2)c(-c2ccccc2F)n1,0,1,-4,i,7,13,-14,-19,
CN(C)CCNC(=O)c1ccc(CS(=O)(=O)c2ccc(Br)cc2)o1,-2,3,.,i,-8,.,23,-3,
CCOC(=O)c1nn(-c2ccc3c(c2)CCN3C(C)=O)cc1O,-2,0,-5,?,.,-11,-5,-58,
Cn1c(/C(C#N)=C(\O)c2ccc([N+](=O)[O-])s2)nc2ccccc21,4,4,34,i,-6,19,0,-5,
CCOc1ccc(-c2n[nH]c(C(=O)NN)c2C)cc1,1,0,7,i,9,1,-8,-28,
O=C(Nc1ccccc1C(=O)N1CCCCC1)c1ccco1,4,0,11,i,8,11,7,-1,
O=C(COC(=O)/C=C/c1cccc(Br)c1)NCc1cccs1,-2,0,.,.,.,.,-14,-13,
COc1ccc2[nH]c(C(=O)N3CCC(Cc4ccccc4)CC3)cc2c1,1,-3,-2,i,.,2,-17,-4,
Cc1nc(Nc2ccc(Cl)cc2)c2nnn(Cc3ccccc3)c2n1,-8,-14,0,i,-1,-9,6,-11,
Cc1nc(N2CCN(Cc3ccccc3)CC2)nc2c1CCC2,0,0,-5,i,12,4,-6,-15,
O=C(c1cc([N+](=O)[O-])ccc1N1CCCCC1)N1CCCC1,1,2,8,i,-1,-2,.,.,
CC(C)Oc1cccc(C(=O)C2CCCN(C(=O)c3cc(C4CC4)[nH]n3)C2)c1 (stereo unspecified),0,-4,3,i,5,-10,2,-24,
O=C(O)c1ccc(Cn2cc(Cl)cn2)cc1,7,3,6,i,-75,-7,1,-15,
O=C1CSC(c2cccc([N+](=O)[O-])c2)N1C1CC2CCC1C2 (stereo unspecified),3,-1,-9,i,-3,-3,-8,6,
COc1ccc(S(=O)(=O)NCCOc2cccc3cccnc23)cc1OC,2,3,-4,i,5,-8,.,4,
FC(F)(F)c1ccccc1NC(=S)N1CCN(c2ccccn2)CC1,-1,-17,-18,i,26,3,3,-9,
CC(C)(C)c1ccc(C(=O)N2CCC(C(=O)NC3CC3)CC2)cc1,3,6,-6,i,-17,4,.,-12,
O=C(c1ccccc1)N(Cc1cccnc1)C1(C(=O)Nc2ccccc2)CCCCC1,3,3,-9,i,12,9,-2,.,
COc1ccc(-c2csc(N3CCN(S(=O)(=O)c4ccc5c(c4)NC(=O)CO5)CC3)n2)cc1,3,-15,7,i,5,-12,14,.,
O=C(Nc1cccc(C(=O)Nc2ccccc2C(=O)O)c1)c1cccc(Cl)c1,2,5,.,i,-9,.,19,.,
COc1ccc([N+](=O)[O-])cc1NC(=O)CSc1ccccc1,1,-7,7,i,-13,-6,6,7,
CCC(=O)Oc1ccc(C(=O)Nc2cccc(C(=O)NCC(C)C)c2)cc1,3,3,-8,i,-4,5,3,.,
COc1ccc2c(c1)[nH]c1c(=O)n(Cc3ccccn3)cnc12,4,-2,2,i,.,2,3,7,
COc1ccc(Cl)cc1Nc1nnc(-c2ccncc2)s1,10,0,-37,i,-1,2,.,34,
C#CCSc1nnnn1-c1cccc(Cl)c1,0,6,0,i,10,0,-18,-12,
Fc1ccc(CNC(=S)Nc2cccc(C(F)(F)F)c2)cc1,4,0,14,i,.,21,10,.,
Cc1nccn1-c1ncnc2sc3c(c12)CCCC3,2,-3,-10,i,.,-6,-8,.,
C=CCC[C@H](Cc1ccc(F)cc1)C(=O)OC[C@@H](NC(=O)[C@@H](CC=C)CC(=O)N[C@@H](CO)Cc1ccccc1)C(C)(C)C,-18,-26,.,.,14,.,20,17,
O=C1c2ccccc2C(=O)N1CC1c2ccccc2CCN1S(=O)(=O)c1ccccc1 (stereo unspecified),-2,3,-12,i,.,-8,-5,-11,
COc1cc(OC)cc(-c2sc3ccc(OC)cc3c2C#CC2(N)CCCCC2)c1,-9,-10,.,.,-26,.,104*,-18,
Cc1cccn2cc(CSc3ccccc3N)nc12,-3,-1,-5,i,-132,0,-8,-11,
O=C(Nc1ccccc1)Nc1sccc1-c1nc2ccccc2s1,4,7,4,i,12,28,20,-11,
Cc1ccc2cc(C)c(N3CCN(c4ccccn4)CC3)nc2c1,1,-1,3,i,7,1,-7,1,
CC1CCCCN1CCCNC(=O)Cn1ncc2c([nH]c3ccccc32)c1=O (stereo unspecified),0,5,-12,i,10,0,7,0,
CC(C)CCNC(=O)CN(C(=O)Cn1nnc(-c2ccc(F)cc2)n1)C1CCCC1,0,0,4,i,20,12,-14,-9,
CCOc1cccc(C(=O)NCc2ccccc2)c1,5,8,-1,i,10,-2,-15,.,
CCCCOC(=O)c1cc(Cl)c(O)c(OC)c1,0,1,0,i,6,-4,-5,-14,
O=C(NCCNC(=O)c1ccco1)c1ccc(F)cc1,5,4,-2,i,-1,-9,-12,-4,

# A draw from above in order of length of the SMILES, lowest first.
SMILES,MT1-MMP act inh,MT1-MMP act inh RFP,PABP FP inh,Rce1 inhib,Env fusion inh,eIF4H inh,CSC inhib,UUG fidelity,others
Cc1cccn2cc(CSc3ccccc3N)nc12,-3,-1,-5,i,-132,0,-8,-11,
Cc1nccn1-c1ncnc2sc3c(c12)CCCC3,2,-3,-10,i,.,-6,-8,.,
O=C(Nc1ccccc1)Nc1sccc1-c1nc2ccccc2s1,4,7,4,i,12,28,20,-11,
Cc1ccc2cc(C)c(N3CCN(c4ccccn4)CC3)nc2c1,1,-1,3,i,7,1,-7,1,
O=C1c2ccccc2C(=O)N1CC1c2ccccc2CCN1S(=O)(=O)c1ccccc1 (stereo unspecified),-2,3,-12,i,.,-8,-5,-11,

# (cont.)
SMILES,MT1-MMP act inh,MT1-MMP act inh RFP,PABP FP inh,Rce1 inhib,Env fusion inh,eIF4H inh,CSC inhib,UUG fidelity,others
CN(c1ccccc1)S(=O)(=O)c1ccc2c(c1)OCCO2,3,-4,.,.,-7,.,15,-18,
COc1ccc(C(C(=O)NC2CCCC2)N(C(=O)c2ccco2)c2ccc(OC)c(OC)c2)cc1 (stereo unspecified),-3,1,8,i,-381,-7,-3,-16,
O=C(NC1CCC(O)CC1)c1cccnc1Sc1ccccc1Cl (stereo unspecified),1,0,3,i,.,-4,-5,-4,
COc1cc(C(=O)NCC(c2cccs2)N2CCc3ccccc32)cc(OC)c1OC (stereo unspecified),3,-5,.,i,8,.,29,24,
CCN1CCN(C(=S)NC(=O)/C=C/c2cccs2)CC1,3,9,-8,i,0,32,-11,.,
CCc1c(C)c(C#N)c2nc3ccccc3n2c1Nc1c(C)n(C)n(-c2ccccc2)c1=O,-11,-3,5,i,-131,76,-2,-15,eIF4H inh retest=-8;PABP FP inh retest=0
Cc1nn2cc(-c3ccc(Cl)cc3)cnc2c1Br,.,.,?,i,-43,-7,6,.,
COc1cc2c(cc1OC)CN(CC(=O)Nc1ccccc1C#N)CC2,-1,-2,-3,i,.,4,3,-19,
O=C(NC1CCCCCC1)C1CCN(C(=O)c2ccc(Br)cc2)CC1,1,1,5,i,-13,-4,2,13,
CC(C)CN(C(=O)COC(=O)CCc1c[nH]c2ccccc12)C1CCS(=O)(=O)C1 (stereo unspecified),-4,-1,11,i,-16,8,5,-6,
CC(C)N1CC=C2C(C#N)=C(N)C(C#N)(C#N)C(c3ccccc3)C2C1 (stereo unspecified),-184,8,?,i,-61,?,.,2,
Cn1c(N)c(C(=O)COC(=O)/C=C/c2ccccc2)c(=O)n(C)c1=O,3,2,.,.,-3,.,-27,7,
C=C(C)C1CC=C(C)/C(=N/NC(=O)COc2cccc(C)c2)C1 (stereo unspecified),-3,0,9,i,-59,-6,-4,-7,
O=C(NC(CC(=O)N1CCN(c2ccccc2)CC1)c1ccccc1)c1ccccc1 (stereo unspecified),-1,0,.,.,-8,.,.,14,
C(=N\Nc1nc2ccccc2[nH]1)/c1cccc2nccnc12,3,-1,-1,i,4,7,27,0,
CC(C)N(C)NC(=S)Nc1ccccc1,2,8,-4,i,-38,-3,7,.,
Cc1c(Cl)ccc2c1NC(=O)[C@]21[C@@H]2C(=O)N(Cc3ccccc3)C(=O)[C@@H]2[C@@H]2CCCN21,-6,5,7,.,.,0,-1,-1,
NC(=O)c1cc([N+](=O)[O-])cc2c1C=Cc1ccccc1O2,-1,2,-8,i,-9,2,-3,-15,
Cc1cc(C)n(S(=O)(=O)c2cc(Cl)ccc2Cl)n1,-2,1,-3,i,-30,2,10,-7,
CC(C)c1ccc(/C=N/Nc2cc(N3CCOCC3)nc(N3CCOCC3)n2)cc1,-9,-5,-4,.,18,2,28,-8,
Cc1ccc(N2C(=O)c3ccc(C(=O)Nc4cccnc4)cc3C2=O)c(C)c1,-4,5,-3,i,13,-4,5,-15,
CC(=O)c1c(C)nn(C(=O)c2cccs2)c1C,-3,0,1,i,19,-6,-6,-22,
Cc1noc(C)c1S(=O)(=O)N(C)C[C@H]1Oc2ccc(NS(=O)(=O)c3ccc(F)cc3)cc2C(=O)N([C@H](C)CO)C[C@@H]1C,1,0,.,.,1,.,-14,10,
Cc1ccc(/C=C/S(=O)(=O)NCCC(=O)NCc2ccccc2F)cc1,-1,-1,.,.,11,.,2,-19,
CNc1cccc(-c2cccc(O)c2)n1,2,10,.,.,-31,.,.,-12,
CCOc1ccc(-c2c(C(=O)N/N=C/c3ccc(OC)cc3)nnn2-c2nonc2N)cc1,2,3,8,i,-61,9,5,-13,
CCOC(=O)c1c(NCc2ccc3c(c2)OCO3)c2ccccc2[nH]c1=O,0,-3,2,.,.,8,14,-14,
Cc1cc(C)c(NC(=O)CN2C(=O)NC3(CCCCC3)C2=O)c(Cl)c1,3,1,1,i,.,-5,3,-17,
CCc1ccc(NC(=O)c2cnn(-c3ccccc3)c2C)cc1,-2,-9,6,i,.,-2,29,.,
Cc1ccc(CNC(=O)CCNS(=O)(=O)c2cccs2)cc1,1,9,-2,i,.,1,13,-14,
CCC(=Cc1ccc(CC)cn1)CC,-1,0,4,i,19,16,12,-18,
COC(=O)c1ccccc1NC(=O)c1ccc2c(c1)OCCCO2,-3,-1,5,i,-21,-6,-9,-14,

# Rows were taken by chance; 2.9% or so of the library scored in one or more.
